Source: PubChem BioAssay (several laboratories)
GALR2 agonist = GALR2 receptor agonists, primary screen, cell-based | Galanin receptor type 2 (Homo sapiens), O43603 | GALR2-expressing cells, agonist activation read-out | activation, %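 (tested at 5 µM)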 | 140,000 compounds, 0.48% hits;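 active = above mean plus 3 SD of all compounds, about 5% in these data, not always enough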;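 also: 0% = vehicle buffer wells and 100% = reference agonist at full effect; tested in CHO reporter cells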
PKD1 kinase inh = inhibitors of human PKD1 kinase, biochemical, fluorescence polarization | Serine/threonine-protein kinase D1 (Homo sapiens), Q15139 | PKD1 kinase fluorescence polarization assay | inhibition, %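 (about 10 µM by stock and volumes)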 | AID 797, 2007 | 200,000 compounds, 0.056% hits;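 active = inhibition of 50% or more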;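 also: controls were vehicle for no effect and a reference inhibitor for full effect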
Target sequence (Q15139 whole entry, looked up): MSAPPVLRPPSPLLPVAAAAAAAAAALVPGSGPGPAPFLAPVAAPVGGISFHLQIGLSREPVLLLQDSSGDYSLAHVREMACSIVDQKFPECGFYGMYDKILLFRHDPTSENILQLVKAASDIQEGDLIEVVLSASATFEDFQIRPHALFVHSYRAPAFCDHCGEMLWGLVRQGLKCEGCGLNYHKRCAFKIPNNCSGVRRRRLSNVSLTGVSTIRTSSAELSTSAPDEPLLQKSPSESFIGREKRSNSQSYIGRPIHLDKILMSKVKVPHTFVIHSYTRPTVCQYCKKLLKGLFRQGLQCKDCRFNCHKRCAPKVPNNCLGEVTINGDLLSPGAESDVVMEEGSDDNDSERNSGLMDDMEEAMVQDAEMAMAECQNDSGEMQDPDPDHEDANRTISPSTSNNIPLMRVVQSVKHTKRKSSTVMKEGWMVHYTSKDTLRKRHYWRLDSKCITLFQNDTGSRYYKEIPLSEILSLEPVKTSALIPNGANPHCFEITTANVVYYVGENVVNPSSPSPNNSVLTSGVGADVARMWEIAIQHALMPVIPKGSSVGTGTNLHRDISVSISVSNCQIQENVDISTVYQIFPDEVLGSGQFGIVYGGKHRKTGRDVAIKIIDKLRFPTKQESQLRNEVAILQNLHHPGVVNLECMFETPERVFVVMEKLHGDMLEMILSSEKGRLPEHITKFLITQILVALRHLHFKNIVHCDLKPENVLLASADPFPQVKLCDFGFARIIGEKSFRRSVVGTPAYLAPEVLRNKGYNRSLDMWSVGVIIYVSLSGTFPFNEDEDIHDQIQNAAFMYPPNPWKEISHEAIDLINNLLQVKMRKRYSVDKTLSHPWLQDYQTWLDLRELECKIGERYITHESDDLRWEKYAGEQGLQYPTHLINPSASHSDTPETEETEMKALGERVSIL
Insulin prom inh = inhibitors of insulin promoter-driven GFP, primary screen, imaging, TRM-6 cells (human fetal islet line), eGFP reporter, cell count | 130,000 compounds, 0.9% hits | reporter expression induced with tamoxifen | inhibition, % at 2 µM;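 active = inhibition above the mean plus 3 SD, with well images judged a real hit on visual review, cut at about 60% in these data, passing the limit was not always enough; inconclusive = inhibition over the cutoff but images rejected on review; inactive = inhibition not above the cutoff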
RGS16-Gao HTS = modulators of RGS16 binding to Galphao, primary screen, biochemical, human proteins, multiplexed bead flow cytometry; Regulator of G-protein signaling 16 (Homo sapiens) + Guanine nucleotide-binding protein …; bead-based flow cytometry RGS16-Galphao binding, fluorescence; actives lie on both sides; binding response (% of control), % at 10 µM; 220,000 compounds, 0.38% hits; AID 1441, 2008;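 active = below 25% or above 175%, edge rows of some plates excepted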;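 also: Galphao activated by GDP with aluminum fluoride before binding; 100% = wells without compound and 0% = beads without RGS; some results beyond the cut were filed as inactive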
HSV augment = enhancers of HSV replication in host cells, fold increase, host cell viability; maximum fold increase; 220,000 compounds, 0.005% hits; HSV replication augmentation in cells;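 active = peak rise of 1.5-fold or more in the series; inconclusive = self-fluorescent or not available for retest; tested in PC3 cells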;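 also: first round at 10 µM; read as green reporter fluorescence; hits show the peak of a series up to 25 µM; 1 = signal of infected wells without compound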
Insulin prom inh cell count = further read-out of Insulin prom inh, marked with its call; normalized cell count, %; measured here: cell count, toxicity; reference of the scale not given here;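 cells exposed to compound for 48 h; stained nuclei by imaging scaled within each plate; lower means fewer cells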
HSV augment primary fold = further read-out of HSV augment, marked with its call; fold increase; compound at 10 µM; measured here: primary screen fold increase 10 uM; tested in PC3 cells;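 GFP signal in the first replicate; 1 = infected wells without compound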
* hit, by the source's call; i = inactive; ? = inconclusive; · = not tested or not shown; & = joins results of further samples.

SMILES	GALR2 agonist	PKD1 kinase inh	Insulin prom inh	Insulin prom inh cell count	RGS16-Gao HTS	HSV augment	HSV augment primary fold
COCCN=C1NN=C(c2ccc(NC(C)=O)cc2)CS1	·	-6	·	·	99	i	1.1
Cc1ccc(NC(=O)C(NS(=O)(=O)c2cccc3nsnc23)C(C)C)nc1 (stereo unspecified)	-2.1	5	·	·	107	i	0.88
CCCn1c(SCC(=O)Nc2nnc(C)s2)nnc1-c1ccoc1C	0.3	4	·	·	109	i	0.71
CCc1ccc2c(COC(=O)CNS(=O)(=O)c3ccc(NC(C)=O)cc3)cc(=O)oc2c1	0.1	-6	6	91	64	i	0.96
O=C1CNC(=O)N1Cc1ccc(Br)cc1	-0.6	-8	-9	148	105	i	0.88
COc1ccc(Br)cc1CNC(C)c1ccccc1 (stereo unspecified)	-1.7	-15	23	75	102	i	0.81
COc1ccc(N/N=C(\C#N)C(=O)NCCc2ccc(OC)c(OC)c2)cc1	·	·	·	·	102	i	0.8
O=C(c1ccc(CN2CCOCC2)cc1)N1CCC(Cc2ccccc2)CC1	-1.3	3	·	·	107	i	1.1
O=C(c1ccccc1)N1CCN(C(=O)c2ccccc2)CC1	-1.8	-3	·	·	103	i	1.1
CN(Cc1ccccc1)C(=O)c1ccco1	·	-8	8	108	102	i	1
Cc1cc(NC(=O)CCCC(=O)O)nc(C)n1	-3.4	-6	44	161	100	i	0.99
Cc1nn(-c2ccccc2)c(N2CCCCC2)c1/C=N/O	-1.5	-5	·	·	103	i	1
CCCC(=O)NCCc1nc2ccccc2n1CCC	-5.1	4	·	·	103	i	0.87
COC(=O)C1=C(C)NC(=O)/C1=C\c1cc(C)n(-c2ccc(F)cc2)c1C	·	0	·	·	101	i	1.2
Cc1ccc(S(=O)(=O)N2CCC(C(=O)Nc3nnc(-c4ccc(F)cc4)s3)CC2)cc1	0.6	-1	3	135	99	i	0.96
COc1cc(OC)cc(C(=O)N[C@H](C(=O)Nc2ccc3c(c2)OCO3)C(C)C)c1	·	0	0	81	108	i	1
S=c1nc(C2CC2)[nH]c2ccccc12	-1.1	7	-19	101	89	?	·
CC(C)NC(=O)NC(=O)COc1cccc2c1OC(C)(C)C2	-2.8	-11	-91	110	101	i	0.97
Cc1cc(C)c(C#N)c(SCC(=O)Nc2ccccc2C)n1	·	6	·	·	29	i	0.91
C(#Cc1ccccc1)CN1CCN(c2ccccn2)CC1	-1.2	-2	-3	60	11	i	0.96
Cc1nc(NCC2CCCO2)c2nnn(Cc3ccccc3)c2n1 (stereo unspecified)	-0.5	0	54	106	100	i	1.1
CN(C(=O)c1ccccn1)c1nnc(-c2ccncc2)s1	-1.2	-19	0	100	·	·	·
CCCCNC(C(=O)Nc1ccc(Cl)c([N+](=O)[O-])c1)c1ccccc1 (stereo unspecified)	-0.5	-1	-28	157	107	i	0.97
COc1ccc(C2NC(=S)N(c3ccccc3)C(C)=C2C(=O)Nc2ccccc2)cc1 (stereo unspecified)	0.0	-5	17	168	123	i	0.97
Cc1ccnc(NS(=O)(=O)c2ccc(NC(=O)Cc3cccs3)cc2)n1	-1.6	-12	29	150	101	i	1

An excerpt from above in order of length of the SMILES, largest number first.
SMILES	GALR2 agonist	PKD1 kinase inh	Insulin prom inh	Insulin prom inh cell count	RGS16-Gao HTS	HSV augment	HSV augment primary fold
Cc1ccc(S(=O)(=O)N2CCC(C(=O)Nc3nnc(-c4ccc(F)cc4)s3)CC2)cc1	0.6	-1	3	135	99	i	0.96
COc1cc(OC)cc(C(=O)N[C@H](C(=O)Nc2ccc3c(c2)OCO3)C(C)C)c1	·	0	0	81	108	i	1
COc1ccc(C2NC(=S)N(c3ccccc3)C(C)=C2C(=O)Nc2ccccc2)cc1 (stereo unspecified)	0.0	-5	17	168	123	i	0.97
COC(=O)C1=C(C)NC(=O)/C1=C\c1cc(C)n(-c2ccc(F)cc2)c1C	·	0	·	·	101	i	1.2
Cc1ccc(NC(=O)C(NS(=O)(=O)c2cccc3nsnc23)C(C)C)nc1 (stereo unspecified)	-2.1	5	·	·	107	i	0.88
COc1ccc(N/N=C(\C#N)C(=O)NCCc2ccc(OC)c(OC)c2)cc1	·	·	·	·	102	i	0.8
Cc1ccnc(NS(=O)(=O)c2ccc(NC(=O)Cc3cccs3)cc2)n1	-1.6	-12	29	150	101	i	1
O=C(c1ccc(CN2CCOCC2)cc1)N1CCC(Cc2ccccc2)CC1	-1.3	3	·	·	107	i	1.1
CCCn1c(SCC(=O)Nc2nnc(C)s2)nnc1-c1ccoc1C	0.3	4	·	·	109	i	0.71
CC(C)NC(=O)NC(=O)COc1cccc2c1OC(C)(C)C2	-2.8	-11	-91	110	101	i	0.97
Cc1cc(C)c(C#N)c(SCC(=O)Nc2ccccc2C)n1	·	6	·	·	29	i	0.91
CN(C(=O)c1ccccn1)c1nnc(-c2ccncc2)s1	-1.2	-19	0	100	·	·	·
COCCN=C1NN=C(c2ccc(NC(C)=O)cc2)CS1	·	-6	·	·	99	i	1.1
C(#Cc1ccccc1)CN1CCN(c2ccccn2)CC1	-1.2	-2	-3	60	11	i	0.96
Cc1cc(NC(=O)CCCC(=O)O)nc(C)n1	-3.4	-6	44	161	100	i	0.99
COc1ccc(Br)cc1CNC(C)c1ccccc1 (stereo unspecified)	-1.7	-15	23	75	102	i	0.81
O=C1CNC(=O)N1Cc1ccc(Br)cc1	-0.6	-8	-9	148	105	i	0.88
CN(Cc1ccccc1)C(=O)c1ccco1	·	-8	8	108	102	i	1

Given field by field: 2 of the compounds above.
Compound: O=C(c1ccc(CN2CCOCC2)cc1)N1CCC(Cc2ccccc2)CC1
  GALR2 agonist: -1.3	PKD1 kinase inh: 3	Insulin prom inh: ·	Insulin prom inh cell count: ·	RGS16-Gao HTS: 107	HSV augment: i	HSV augment primary fold: 1.1

Compound: O=C(c1ccccc1)N1CCN(C(=O)c2ccccc2)CC1
  GALR2 agonist: -1.8	PKD1 kinase inh: -3	Insulin prom inh: ·	Insulin prom inh cell count: ·	RGS16-Gao HTS: 103	HSV augment: i	HSV augment primary fold: 1.1

Continued:
SMILES	GALR2 agonist	PKD1 kinase inh	Insulin prom inh	Insulin prom inh cell count	RGS16-Gao HTS	HSV augment	HSV augment primary fold
O=C(N/N=C/c1ccc[nH]1)c1cc(-c2ccc(Cl)cc2)nc2ccccc12	·	5	·	·	98	i	1
O=C(NCc1cccs1)c1csc2c1CCCCC2	-1.0	-1	·	·	103	i	0.86
CC1CCC(NC(=O)COc2ccccc2C(N)=O)CC1 (stereo unspecified)	-2.1	3	39	141	105	i	1
Oc1ccc(CCC2CCCCN2Cc2nc(C3CC3)no2)cc1 (stereo unspecified)	·	0	·	·	111	i	0.78
Cc1ccc(C(=O)NCC(=O)OC(C)C(=O)Nc2ccc(N3CCOCC3)cc2)s1 (stereo unspecified)	·	·	·	·	100	i	1.1
Cc1ccc(C(=O)NC(=S)NCc2cccnc2)c(C)c1	·	-4	·	·	107	i	0.97
COc1ccc(Br)cc1C(=O)Nc1ccc(Cc2ccncc2)cc1	-1.0	9	·	·	103	i	1.1
Cc1ccc(S(=O)(=O)Nc2nc3cc(C)c(C)cc3[nH]2)cc1	·	-10	·	·	155	i	1
CN(C)c1nc(SCCOC(=O)Nc2ccccc2)nc(N(C)C)n1	-1.7	-7	12	67	105	i	0.91
Cn1c(=O)n(Cc2ccccc2Br)c2ccccc21	·	-6	-11	134	106	i	0.97
CCOCCCn1c(SCC(=O)Nc2cc(C(C)(C)C)nn2-c2ccccc2)nc2ccccc2c1=O	1.4	11	-20	72	66	i	0.85
Cc1ccc(Sc2cc(C)nc(-c3ccccn3)n2)cc1	·	·	·	·	97	i	0.7
CC1CCCN(C(=O)Cn2cnc3c2c(=O)n(C)c(=O)n3C)C1 (stereo unspecified)	-2.6	-7	4	74	105	i	0.93
COc1ccc(NC(=S)N(CCCN2CCCCC2)Cc2cccs2)cc1	-0.5	-7	6	38	116	i	0.9
COc1ccc(OCC(=O)Nc2ccc(S(=O)(=O)N3CCN(C)CC3)cc2)cc1	·	-1	·	·	108	i	0.92
O=C(CSc1nnc(-c2ccncc2)n1-c1ccc(Cl)cc1)Nc1ccc(C(=O)O)cc1	·	-5	55	120	105	i	1
C(=C\c1ccccc1)/C=N/Nc1nncc(-c2ccccc2)n1	-0.7	6	0	146	104	i	1
C/C(=N\N=C1/NC(=O)C(C)S1)c1ccco1 (stereo unspecified)	·	1	21	94	102	i	1.1
COc1ccc(C2=C(CN(C)C)C(c3ccccc3)c3ccccc3O2)cc1 (stereo unspecified)	-1.6&-0.9	2&6	35	129	102&106	i	0.92
COCCn1c(SCC(=O)NNC(=O)c2ccc(OC)c(OC)c2)nc2ccccc2c1=O	·	-1	·	·	98	i	0.94
CCc1nnc(NC(=O)COc2ccccc2[N+](=O)[O-])s1	·	·	·	·	96	i	0.96
COc1ccc(/C=N/NC(=O)COc2cccc3cccnc23)cc1OC	·	0	·	·	105	i	0.9
COc1ccc2[nH]c(=O)c(CN(C(=O)COc3ccccc3)C(C)C)cc2c1	-2.0	9	-31	83	74	i	1
CCCC(=O)Nc1ccccc1N1CCN(C(=O)c2ccccc2)CC1	-1.2	-4	·	·	111	i	0.86
CCCCNC(=O)CCc1nc2cccnc2n1Cc1ccc(OC)cc1	-1.2	-4	83*	84*	101	i	0.88

Continued:
SMILES	GALR2 agonist	PKD1 kinase inh	Insulin prom inh	Insulin prom inh cell count	RGS16-Gao HTS	HSV augment	HSV augment primary fold
O=c1c(Cc2ccc(F)cc2)c(O)ccn1Cc1cccc(Cl)c1	-1.1	-2	-23	106	91	i	0.86
COc1ccc(NC(=O)COc2ccc(/C=N/NC(=O)c3cccnc3)cc2OC)cc1	-0.5	-7	26	105	94	i	0.9
Cc1ccc(OC(=O)c2ccccc2C(=O)OCC(F)(F)C(F)F)cc1	-1.4	-4	16	125	112	i	0.95
O=C(/C=C/c1ccco1)OCc1nnc(-c2ccccc2)o1	·	1	-64	92	98	i	1.1
COc1ccc(S(=O)(=O)N2CCN(c3ccccc3)CC2)cc1	·	2	·	·	107	i	0.7
O=C(Nc1ccccc1Cl)NC1(C(=O)N2CCCC2)CCCCC1	-3.2	-2	62	126	95	i	1.1
Cn1c(=O)cc(SCC(=O)NCCC2=CCCCC2)c2ccccc21	-1.5	3	21	111	103	i	0.92
Cn1c(N2CCCCC2)nc2c1c(=O)n(Cc1cccc(Br)c1)c(=O)n2C	-2.4	-2	9	126	133	i	0.82
COc1ccc(C(=O)N2CCCC2)cc1	0.2	-3	9	117	100	i	1.2
CCCS(=O)(=O)c1c(S(=O)(=O)CCC)c2c(N)cccn2c1C(=O)c1ccc(Br)cc1	-2.5	-3	-190	89	104	i	1.2
O=C(CNS(=O)(=O)c1cccs1)NCc1ccccc1	·	1	·	·	105	i	1
N=C1C(c2ccccc2)=C(O)CN1c1ccccc1N1CCOCC1	-1.2	-7	·	·	103	i	0.89
CSC1=N/C(=C\c2c(F)cccc2Cl)C(=O)S1	-1.7	-8	42	103	69	i	0.91
COc1cc(C(=O)Nc2ccc3oc(-c4cccnc4)nc3c2)cc(OC)c1OC	·	-2	0	216	89	i	0.77
COc1cccc(CN2CCN(Cc3cccc4c3OCO4)CC2CCO)c1 (stereo unspecified)	·	6	·	·	90	i	1.1
O=C(CN1CCOCC1)N/N=C/c1ccc(-c2cccc(Cl)c2Cl)o1	·	·	·	·	107	i	0.95
COc1ccc(S(=O)(=O)Nc2nc3n(n2)C(c2ccc(Cl)cc2)CC(=O)N3)cc1 (stereo unspecified)	-2.4	-4	-5	80	81	·	·
COc1ccc(-c2c(-c3ccc(O)cc3O)n[nH]c2C(F)(F)F)cc1	·	·	·	·	101	i	0.92
CCCCn1cnc2c(=S)nc(N)[nH]c21	·	·	·	·	97	i	1.1
O=C(COC(=O)C1CC(=O)N(Cc2ccccc2)C1)c1ccc(F)cc1 (stereo unspecified)	·	-2	27	161	112	i	0.96
c1cnc2ccc3ncccc3c2c1	·	·	·	·	103	i	0.8
CC(=O)Nc1cccc(Oc2cc(C#N)c(C#N)cc2N2CCCCCC2)c1	2.2	3	26	135	103	i	0.78

No enrichment for hits. About 1.1% of those tested had a hit in this group.
